# H5N1 antiviral: MDCK cell protection from H5N1 avian flu; actives 0.07% (n = 96,000); cytopathic effect, luminescence, 72 h; hits give high values; no value below 0 was filed and about half of the inactive calls have no number; reference of the scale not given here; inhibition, % at 50 µM; AID 740, 2007; in the data active means inhibition above about 25%
# The depositor's hits bear a star; i = inactive. Only part of the results is shown. The share of hits here may be higher or lower than overall.
canonical_smiles	H5N1 antiviral
O=C1C2C3C=CC(C3)C2C(=O)N1c1ncn[nH]1 (stereo unspecified)	0.8
OC(c1ccccc1)C1CN(Cc2ccccc2)CCC1(O)c1ccccc1 (stereo unspecified)	i
CN(CC(=O)NCCc1ccccc1)S(=O)(=O)c1ccc(Br)cc1	0.4
O=C(COc1ccc(Cl)cc1Cl)N1CCCCCC1	i
O=C1C2C3c4ccccc4C(c4ccccc43)C2C(=O)N1CN1CCOCC1 (stereo unspecified)	i
N#Cc1cc2c(nc1SCc1cccnc1)CCCCC2	0.4
Cc1ccc(CCNC(=O)CN2C(=O)COc3ccccc32)cc1	1.7
Cc1cc(C(=O)CSc2nc3ccccc3c(=O)n2C)c(C)n1Cc1ccc2c(c1)OCO2	i
CC(=O)NS(=O)(=O)c1ccc(NC(=O)CCC2CCCC2)cc1	i
COC(=O)c1cc(-c2ccc3c(c2)OCO3)nc2ccccc12	i
O=C(Oc1ccc(N(Cc2cccs2)C2=NS(=O)(=O)c3ccccc32)cc1)c1ccc(Cl)cc1	2.0
CC(=O)c1c(C(C)=O)c(C)n(-c2nc(-c3ccc(Br)cc3)c(C)s2)c1C	i
CCCCNC(=O)Cn1cnc2sc(C(=O)OCC)c(C)c2c1=O	i
CCc1noc(C)c1C(=O)NCCc1ccc(OC)c(OC)c1	i
O=C(Nc1ccc(N2CCOCC2)cc1)c1ccc(S(=O)(=O)N2CCCCC2)cc1	i
C=CCOC(=O)C1=C(C)NC(SCC(=O)Nc2nccs2)=C(C#N)C1c1cccs1 (stereo unspecified)	6.4
CCOC(=O)N1CCN(c2ncnc3c2[nH]c2ccc(OC)cc23)CC1	0.7
CCOC(=O)N/N=C(\C)c1ccc(Br)cc1	0.8
CCOC(=O)c1ccc(NC(=O)c2ccc(NS(C)(=O)=O)cc2)cc1	i
O=C1c2ccccc2NC2(CCCC2)N1O	2.7
COc1cc(CNCc2ccccn2)ccc1OCc1ccc(Cl)cc1Cl	i
CC1CCCCC1NC(=O)CSc1nnc(-c2ccccc2)n1N (stereo unspecified)	1.1
Cn1cnnc1SCC(=O)Nc1ccc(S(=O)(=O)N2CCCC2)cc1	0.1
CC(C)c1nnc(NC(=O)c2cccs2)s1	5.2
N/C(Cc1ccc(Cl)cc1Cl)=N\OC(=O)c1cccs1	i
Cc1ccc(S(=O)(=O)NCC(=O)OCC(=O)NC(=O)c2cccn2C)cc1	i
O=c1oc(/C=C/c2ccccc2)nc2sc3c(c12)CCC3	i
Cc1noc(C)c1COC(=O)C1COc2ccccc2O1 (stereo unspecified)	i
Cc1ccc(OCC(=O)Nc2cccc(-c3nnc(-c4ccccc4)o3)c2)cc1	1.2
Brc1cccc(-c2nnc3n2CCC3)c1	0.7
CC(=O)c1ccc(NC(=O)c2cnn3ccccc23)cc1	0.8
O=C(Cc1ccccc1)N1CCC(O)(c2cccnc2)CC1	0.7
O=c1c2cc(N3CCOCC3)ccc2[nH]c(=S)n1Cc1ccc(Cl)cc1	0.6
CC(=O)N1CCN(Cc2nc3cc(NC(=O)Cn4nc(C)c5ccccc5c4=O)ccc3n2C)CC1	0.1
Cc1ccc(C(=O)C(C)OC(=O)C2CC(=O)N(C3CCCCC3)C2)cc1 (stereo unspecified)	i
CCCOc1ccc(C(=O)c2nc3c(n2O)CCCC3)cc1	0.7

# A second format for some results above:
Molecule: CC(=O)c1ccc(NC(=O)c2cnn3ccccc23)cc1
  H5N1 antiviral: 0.8

Molecule: Cc1noc(C)c1COC(=O)C1COc2ccccc2O1 (stereo unspecified)
  H5N1 antiviral: i

Molecule: O=C(Cc1ccccc1)N1CCC(O)(c2cccnc2)CC1
  H5N1 antiviral: 0.7

Molecule: Brc1cccc(-c2nnc3n2CCC3)c1
  H5N1 antiviral: 0.7

# 2 of the compounds above, as labelled records:
O=c1c2cc(N3CCOCC3)ccc2[nH]c(=S)n1Cc1ccc(Cl)cc1
  H5N1 antiviral: 0.6
CC(=O)N1CCN(Cc2nc3cc(NC(=O)Cn4nc(C)c5ccccc5c4=O)ccc3n2C)CC1
  H5N1 antiviral: 0.1

# (listing goes on)
canonical_smiles	H5N1 antiviral
O=c1c2c(nc3c(-c4ccc(Cl)cc4)c[nH]n13)CCCC2	4.6
CCC1=NN(C(=O)CCc2ccccc2)C(O)(C(F)(F)F)C1 (stereo unspecified)	0.3
Cc1occc1-c1nnc(SCC(=O)N2CCOCC2)n1CCc1ccccc1	i
CCOC(=O)c1c(N)n(Cc2ccco2)c2nc3ccccc3nc12	0.6
O=C(CN1CCc2ccccc21)NC(=O)NCc1ccco1	0.9
Cc1cccc(-n2c(SCC(=O)NCc3ccco3)nnc2-c2ccco2)c1	4.7
O=C(NCCc1ccccc1)/C(=N\O)c1ccccc1	1.7
CCn1c(=O)cc(SCC(=O)NCc2ccc(C)o2)c2ccccc21	1.8
CC(=O)Nc1ccccc1Sc1ccccc1	1.2
CCC(C(=O)NC1CCCC1)N(C(=O)Cn1nnc(-c2ccc(C)o2)n1)c1cnc2ccccc2c1 (stereo unspecified)	i
Cc1ccc(NCc2nc3ccccc3n2C)cc1	1.2
COC(=O)c1ccc(NS(=O)(=O)N(C)C)cc1	0.1
CCC1(C)Cc2c(sc3nnn(CC(=O)Nc4ccccc4)c(=O)c23)CO1 (stereo unspecified)	0.1
Clc1ccc2nc(SCc3nnc(-c4ccccc4)o3)[nH]c2c1	0.0
CCc1ccc(Nc2ncc3c(n2)CC(c2ccc(OC)cc2)CC3=O)cc1 (stereo unspecified)	i
O=S1(=O)CCN(Cc2ccc(Cl)cc2)CC1	0.1
COc1ccccc1-c1nnc(N(C)C(=O)C2CCCO2)s1 (stereo unspecified)	i
CCCOC(=O)C1=C(C)NC2=C(C(=O)CCC2)C1c1cc(OC)ccc1OC (stereo unspecified)	0.7
O=C(COC(=O)C1CCC1)NCc1ccccc1Cl	i
O=C(COc1ccc(Cl)cc1Cl)Nc1ccc2nc3n(c(=O)c2c1)CCCC3	i
Cc1ccsc1/C=N/NC(=O)c1c[nH]c2ccccc12	0.3
COc1ccc(CN2CC(C(=O)NCCN3CCN(c4ccccc4F)CC3)CC2=O)cc1 (stereo unspecified)	i
COc1ccc(OC)c(C2CC(c3c(-c4ccccc4)c4cc(Cl)ccc4[nH]c3=O)=NN2S(C)(=O)=O)c1 (stereo unspecified)	3.6
O=C(c1ccc(Cl)cc1)c1c[nH]c(C(=O)C(Cl)(Cl)Cl)c1	1.5
CC1Cc2ccccc2N1CC(=O)Nc1ccc2c(c1)OCO2 (stereo unspecified)	i
Cc1ccc(-n2c([O-])nc(-[n+]3ccccc3)c2C=O)cc1	i
CCOC(=O)CCCNC(=O)CCCNC(=O)C(c1ccccc1)c1ccccc1	0.1
Cc1ccc(CSC2=CS(=O)(=O)c3ccccc3N2)cc1	i
CCOc1cc2c(cc1OCC)C(C(=O)O)C(c1cc(Br)c(O)c(OC)c1)N(C)C2=O (stereo unspecified)	i
CCOC(=O)C1=C(CN2CCOCC2)NC(=O)NC1c1cc(C)ccc1C (stereo unspecified)	i
N=c1sccn1CC(=O)Nc1ccccc1Cc1ccccc1	i
Cc1ccc(S(=O)(=O)N(Cc2cc3cc4c(cc3[nH]c2=O)OCCO4)CC2CCCO2)cc1 (stereo unspecified)	0.2
CCCn1nc(NC(=O)c2cccs2)c2cc3ccccc3nc21	0.6
COc1cc(CNC2CCCC2)cc(Cl)c1OCc1ccccc1Cl	i
Cc1ccc(-c2ccc(/C=N/c3ncn[nH]3)o2)cc1Cl	i
Cc1ccc(N)c(C(O)(C(F)(F)F)C(F)(F)F)c1	0.2
Cc1nc2ccccc2c2c1C(=O)N(C)C2=O	0.2
CC(C)CC(c1nnnn1CCc1ccccc1)N1CCN(C(=O)c2ccco2)CC1 (stereo unspecified)	4.8
COc1ccccc1N1CCN(C(=O)C2c3ccccc3Oc3ccccc32)CC1	4.2
CC1(c2ccc3noc(-c4ccc(Cl)cc4)c3c2)OCCO1	i
Cc1cc2ccc(C)c(C)c2nc1SCC#N	i
O=C(c1c(Cl)cccc1Cl)N1CCN(c2ccccn2)CC1	i
OCC1CCCN(Cc2ccc(-c3ccccc3)cc2)C1 (stereo unspecified)	i
O=C(CN1C(=O)NC2(CCCc3ccccc32)C1=O)N1CCN(C(=O)c2ccco2)CC1 (stereo unspecified)	0.8
COc1ccc(/C=N\NC(=O)COc2ccccc2Cl)cc1Cn1nc(C)cc1C	i
COc1ccccc1-c1cc(C(=O)NCc2ccc(Cl)cc2)no1	i
CCC(NC(=O)OC(C)(C)C)C(=O)Oc1ccc2c3c(c(=O)oc2c1)CCC3 (stereo unspecified)	0.3
COc1ccc(Cc2nnc3c4cnn(C)c4ncn23)cc1	0.4
O=C(Cc1ccc(Br)cc1)OCC(=O)c1ccc2c(c1)OCCO2	i
CCC(=O)Oc1ccc(C(=O)Nc2ccc3c(c2)C(=O)N(C2CCCCC2)C3=O)cc1	i
O=C1CCCN1c1cc(Cl)ccc1Cl	0.8
O=C(CCc1ccc(S(=O)(=O)NC2CCCCC2)cc1)NCc1ccc(Cl)cc1	0.3
CCN(CC)C(=O)c1ccc2c(c1)N(Cc1ccccc1)C(=O)CS2=O (stereo unspecified)	1.4
O=C(OCCCN=C1NS(=O)(=O)c2ccccc21)c1ccc(F)cc1	1.4
Cc1ncc([N+](=O)[O-])n1CC(=O)NCc1ccccc1	i
CN(CC(=O)N1CCc2ccccc2C1)S(=O)(=O)c1ccc2c(c1)c(=O)n(C)c(=O)n2C	2.4
COc1ccc(OC)c(N2C(=O)C(Cl)=C(N3CCOCC3)C2=O)c1	i
Cc1cc(NC(=O)CCC(=O)N(CC(=O)NC2CCCC2)Cc2ccco2)no1	i
O=C(OCN1C(=O)c2ccccc2C1=O)c1ccccc1	i
O=C(Nc1cccc(F)c1)C1CCCN1S(=O)(=O)c1cccc2cccnc12 (stereo unspecified)	7.3

# Additional compounds follow:
canonical_smiles	H5N1 antiviral
COc1cc(C(=O)Nc2ccc(N(C)C)cc2)cc(OC)c1OC	i
CCc1ccc(C(=O)Nc2ccc(S(=O)(=O)Nc3nc(C)cc(C)n3)cc2)o1	0.2
CC(Nc1cc(N2CCN(C(=O)C(C)(C)C)CC2)ccc1[N+](=O)[O-])c1ccccc1 (stereo unspecified)	3.7
Cc1cc(C)c2c(n1)nn1c(N3CCN(c4ccccc4)CC3)cc(C)nc21	i
CC(=O)c1ccc(OC(=O)c2cccs2)cc1	0.5
CC(C)(C(N)=O)N1CCN(c2ncc(C(F)(F)F)cc2Cl)CC1	i
COC(=O)C1=C(CN2CCN(C)CC2)NC(=O)NC1c1cc(C)ccc1C (stereo unspecified)	1.1
COCCn1c(SCC(=O)NCc2cccs2)nnc1-c1ccc(OC)cc1	0.3
c1ccc(-c2nc(Sc3ncnc4c3cnn4-c3ccccc3)n[nH]2)cc1	1.4
Cc1ccc(Nc2c(-c3ccc(C)o3)nc3cnccn23)cc1	i
Cc1ccc(-n2nnnc2Sc2nc([N+](=O)[O-])nn2C)cc1C	0.9
COC(=O)[C@H](C)NC(=O)Nc1cc(OC)ccc1OC	i
NS(=O)(=O)c1ccc(NC(=O)CN2CCCCC2)cc1	0.5
N=c1c2c(-c3ccccc3)c(-c3ccccc3)n(Cc3ccccc3)c2ncn1CCCn1ccnc1	i
O=C(OCC(=O)N1CCN(C(=O)c2ccco2)CC1)c1ccccc1Cc1ccccc1	i
COc1ccc(N2CCN(C(=O)CSc3ncnc4c3cnn4-c3ccccc3C)CC2)cc1	0.3
CC(C)(C)c1[nH]nc2c1C(c1cccnc1)C(C#N)=C(N)O2 (stereo unspecified)	i
COc1ccccc1NC(=O)C(CCS(C)(=O)=O)N1C(=O)c2ccccc2C1=O (stereo unspecified)	0.2
COc1ccc2c(CC(=O)OCC(=O)N3CCc4ccccc43)coc2c1	i
COc1ccc(N2CCN(c3oc(-c4ccco4)nc3C#N)CC2)cc1	i
Cc1nn(-c2ccc(F)cc2)c2sc(C(=O)O)cc12	i
O=c1cccc2n1CC1CC2CN(c2ncnc3c2cnn3-c2ccccc2)C1 (stereo unspecified)	1.0
Cc1ccccc1OCC(=O)Nc1sc2c(c1C#N)CCC2	i
O=C(CN1CCCCC1)Nc1cccc(Br)c1	i
COc1ccc(OCCn2c(=N)n(CCO)c3ccccc32)cc1	i
Cc1cc(C)c(OCC(=O)Nc2ccccc2N2CCOCC2)c(C)c1	i
CCOC(=O)c1c(C)n(Cc2ccccc2)c2ccc(OCC(O)Cn3nc(C)nc3C)cc12 (stereo unspecified)	i
O=C(CSc1nnc(CNc2ccc(Cl)cc2)o1)Nc1nc2c(s1)CCCC2	i
CCOc1ccc(C(CC(=O)O)NC(=O)c2ccco2)cc1OC (stereo unspecified)	i
CCN1CCc2nc(NC(=O)c3ccccc3)sc2C1	1.1
O=C(CCCC(=O)N1CCCc2ccccc21)N1CCCc2ccccc21	i
O=C1CCCC/C1=C/Nc1ccc(S(=O)(=O)Nc2ncccn2)cc1	i
Cc1cc(Cl)ccc1OCCCC(=O)N1CCCCC1	1.3
CCOc1cc(C2c3c(oc4cc(C)c(Cl)cc4c3=O)C(=O)N2Cc2ccco2)ccc1O (stereo unspecified)	0.4
O=C(Nc1ccc(NC(=O)c2ccco2)nc1)c1cccnc1	i
CN(C)CC(O)COc1ccc(-c2ccc(C#N)cc2)cc1 (stereo unspecified)	i
CCCC(=O)Nc1nc2ccc(OC)cc2s1	i
O=C(Nc1cc(Cl)ccc1O)C1CCCO1 (stereo unspecified)	i
CC(C)C1Oc2ccccc2N(CC(=O)NCCCN2C(C)CCCC2C)C1=O (stereo unspecified)	i
CCOC(=O)c1cc2c(=O)n3ccccc3nc2n(CC(C)C)c1=NC(=O)c1ccco1	2.6
COc1ccccc1N(CC(=O)Nc1c(C)cccc1C)S(C)(=O)=O	i
O=C(OCc1cc2ccccc2[nH]c1=O)c1ccccc1	0.6
